High-throughput results from PubChem BioAssay.
HPGD block = HPGD (human) dehydrogenase inhibition; P15428; purified HPGD, NADH fluorescence kinetic, PGE2 substrate; Potency, µM, inactives show top-dose activity change, negative = inhibition, usual class: inhibitors; 4.3% of 150,000 active; AID 894; active = well fitted inhibition curve with a large enough effect (not every such curve was filed as active); inconclusive = small, poorly fitted or top-dose-only effect, or another doubt; inactive = no such curve, though single readings can be large or run the other way;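 note: top concentration of the series not given in the record; plate controls included wells without enzyme; inactives centre near -10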
Target sequence (P15428 whole entry, looked up): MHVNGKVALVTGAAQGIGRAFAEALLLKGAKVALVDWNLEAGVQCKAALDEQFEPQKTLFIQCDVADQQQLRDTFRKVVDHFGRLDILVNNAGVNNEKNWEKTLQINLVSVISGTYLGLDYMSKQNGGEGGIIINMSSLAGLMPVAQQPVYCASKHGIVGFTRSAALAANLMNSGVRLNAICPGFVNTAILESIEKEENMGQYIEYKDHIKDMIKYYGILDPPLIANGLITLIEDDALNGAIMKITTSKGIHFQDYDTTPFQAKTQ
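20 nM HPGD preincubated 15 min at room temperature with compound in 50 mM Tris-HCl pH 8, 0.01% Tween 20. Started with 1 mM NAD+ and 30 uM prostaglandin E2; NADH fluorescence (360/450 nm) read 5 times over 30-s intervals, last minus first.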
The depositor's hits bear a star; ? = inconclusive; & = joins results of further samples. % is set by controls: 0 for no effect and ±100 for the full control effect; potency is the fitted concentration of half-maximal effect. Some of the compounds tested; rates above refer to the full screens.

molecule	HPGD block
COc1ccc(S(=O)(=O)NCC(=O)N(CC(=O)NCC2CCCO2)c2c(C)cccc2C)cc1 (stereo not given)	1.5%
O=C1CC(=O)C(n2cncn2)C(c2c(F)cccc2Cl)C1 (stereo not given)	4.8%
Cc1ccc2c(c1)CCCN2C(=O)c1ccoc1C	-6.0%
CC1(C)C2CCC1(CS(=O)(=O)Nc1ccc(S(=O)(=O)N3CCCC3)cc1)C(=O)C2 (stereo not given)	-8.3%
CCOc1ccc(CCNC(=O)Cn2cccc2C(=O)c2ccccc2C)cc1OCC	-0.7%
Cc1ccc(CNC(=O)C2CCC(CNc3c(N4CCOCC4)c(=O)c3=O)CC2)cc1 (stereo not given)	?
Cc1ccc(NC(=O)COC(=O)c2cc(Cl)cc(Cl)c2)c(Br)c1	-5.8%
Cn1c(O)c(N=NC(=O)CNC(=O)c2ccco2)c2ccccc21	-9.5%
O=C(NCCSCc1ccccc1)c1ccc(F)cc1	-15.8%
COC(=O)N1CCC2(CC1)CN(c1ccncc1)C2	-9.6%
NC(=O)c1sc2nc(N3CCCCC3)c3c(c2c1N)CCCC3	?
COc1cc(CCC(=O)OCC(=O)Nc2c(C)cccc2C(C)C)cc(OC)c1OC	-6.4%
O=C(C1CCN(c2nnnn2-c2ccccc2)CC1)N1CCN(c2ccccc2)CC1	-3.0%
CCCCC(=O)Nc1ccc(NC(=O)c2cccnc2)cn1	-1.6%
CC(=O)Nc1sc(C)c(C)c1C(=O)Nc1ccc(C)cc1	-2.1%
CCOc1cc(CNc2ccccc2SC)ccc1O	-17.0%
Cc1cc(C)cc(NC(=O)C2CCN(c3nccs3)CC2)c1	-5.8%
Cc1ccc(C)c(N2CCN(CC(=O)Nc3ccc4[nH]c(=O)[nH]c4c3)CC2)c1	-8.2%
CN(C)S(=O)(=O)c1cc(S(=O)(=O)N(C)C)c(Cl)cc1N	-5.6%
CCOC(=O)N1CCN(C(=S)Nc2ccc(C)cc2)CC1	0.6%
COCCCNCCOCCOc1ccccc1-c1ccccc1	-1.3%
CC(=O)Nc1cccc(NC(=O)CSc2nnnn2C(C)C)c1	-3.2%
CN(C)c1nc(N)nc(-c2nc3ccccc3s2)n1	-3.6%
Cc1cc(NC(=O)C(=O)NCCN2CCN(C(=O)c3cccs3)CC2)ccc1Br	-11.2%
Cn1c(=O)[nH]c(=O)c2c1nc(CN1CCN(c3ccccc3F)CC1)n2CC(N)=O	-3.5%
CCNC(=S)SCCOc1ccccc1C	-16.8%
COc1ccc(C(=O)N2CCC3(CC2)CN(c2ccncc2)C3)cc1	-5.9%
O=C1c2ccccc2C(Nc2ccc(S(=O)(=O)N3CCCCCC3)cc2)N1c1ccccn1 (stereo not given)	-7.1%
CN(/N=C/c1ccc2c(c1)OCO2)c1ccccc1	?
COc1ccc(-c2nc(N)ncc2-c2csc(C)n2)c(O)c1	-1.2%
O=S1(=O)CC(O)C(NCc2ccco2)C1 (stereo not given)	-1.9%
COc1cc(C(=O)NNC2=NC(C)(C)Cc3cc(C)c(C)cc32)cc(OC)c1OC	-9.0%
CCN1C(=O)/C(=C2\C=Cc3cc(C)ccc3N2CC)OC1=S	-10.3%
CCc1ccc(N2CC(C(=O)Nc3nnc(CC)s3)CC2=O)cc1 (stereo not given)	-8.3%
CCCCCCN(C(=O)CCCCCN1C(=O)NC(c2ccc(C(C)(C)C)cc2)C(C(=O)OCc2ccccc2)=C1C)C(C(=O)NCCCC)c1ccc(OCC(=O)OC)c(C(=O)OC)c1 (stereo not given)	-12.9%
CCOc1cccc(C(=O)NC(=S)Nc2cccc(C)c2)c1	-8.7%
Cc1cc(Nc2c(C)cccc2C)n2nc(C)nc2n1	-16.7%
Cc1ccc(OCC(O)C(C)NC(C)C)c2c1CCC2 (stereo not given)	-8.6%
CC1=NN(C(=O)c2nn(C)cc2Br)C(O)(C(F)(F)F)C1 (stereo not given)	-12.3%
N=C(N)SCCc1ccccn1	-5.1%&1.1%
COc1ccc(S(=O)(=O)N2CCCC(C(=O)Nc3ccc4c(c3)OCCO4)C2)cc1 (stereo not given)	-9.3%
CC1=CC(C)(C)N(C(=O)CSc2nnc(N)s2)c2ccccc21	-9.7%
COC(=O)c1sccc1-c1ccc(C(=O)Nc2cccnc2)o1	?
O=C1CCC/C1=C/Nc1ccc2c(c1)OCO2	-12.3%
O=C(Oc1ccc(=O)n(-c2ccccc2)n1)c1ccccc1	1.4%
O=C(Nc1nnc(CCS(=O)(=O)c2ccc(Br)cc2)s1)c1ccc([N+](=O)[O-])cc1	-5.0%
O=C(COCCOCC(=O)N(c1ccccn1)C1CCCCC1)N(c1ccccn1)C1CCCCC1	-9.5%
Cc1cc(C)c(NC(=O)C2C3/C=C\CCCCC32)c(C)c1 (stereo not given)	1.0%
O=C1Nc2ccccc2C1(c1ccccc1)c1ccccc1	3.7%
Cc1cc(C)nc(NC(=NCCc2c[nH]c3ccccc23)NC(=O)Nc2ccccc2)n1	-10.3%

Going on with the list.
molecule	HPGD block
O=C(CSc1nc2ccc(Nc3nc(N4CCOCC4)nc(N4CCOCC4)n3)cc2s1)N1CCOCC1	22.4µM*
COC(=O)CNC(c1ccccc1Cl)c1cc(Br)ccc1NS(=O)(=O)c1ccc(C)cc1 (stereo not given)	-6.0%
COC(=O)c1[nH]c2ccc(C)cc2c1NC(=O)CN1CCN(c2ccccc2)CC1	?
COc1ccc(Cl)cc1N(CC(=O)Nc1ccccc1C(=O)NCc1ccco1)S(C)(=O)=O	-16.8%
COc1cccc(-c2nc(CS(=O)CC(=O)NCc3ccccc3Cl)c(C)o2)c1 (stereo not given)	?
CC(C)[C@H](NC(=O)c1ccccc1)C(=O)OCC(=O)/C=C1/N(C)c2ccccc2C1(C)C	-12.5%
Clc1ccc(Cc2nn3c(Cn4nnc5ccccc54)nnc3s2)cc1	22.4µM*
Cc1ccccc1OCCCCCn1ccnc1	-5.9%
Cc1ccc(NC(=O)C2C3/C=C\CCCCC32)cc1 (stereo not given)	-1.9%
COc1cc2[nH]c(=S)n(Cc3ccc(C)o3)c(=O)c2cc1OC	-18.2%
NCCSCc1ccccc1Cl	-15.3%
COc1ccc(NC(=O)N2CCCC2C(=O)NCc2ccc(F)cc2)cc1 (stereo not given)	-5.9%
CCCCCc1ccc(-c2ccc(/C=C/C(=O)O)cc2)nc1	?
COc1ccc(-c2ccc(-c3cc(=O)oc4cc(C)cc(C)c34)cc2)cc1	-21.4%
COCCNC(=O)CN1CCC(n2c(C)nc3cc(C(F)(F)F)ccc32)CC1	2.5%
C=C(C)C(=O)/C=C/CCC/C=C/C(=O)OCC	-5.8%
C=CCc1c(C)nc(SCC(=C)C)[nH]c1=O	?
Cc1nn(-c2ccc(Cl)cc2)c(Cl)c1/C=C(\C#N)C(N)=O	-17.5%
COC(=O)c1cc2sccc2n1Cc1nc(-c2ccc(Cl)cc2)oc1C	-5.5%
NC(=O)[C@@H]1CCCNc2c(I)cc([N+](=O)[O-])cc2C(=O)N[C@@H](CCC(=O)O)C(=O)N[C@@H](CO)C(=O)N1	-7.8%
CC(C)Cn1c(N)c(C(=O)CSc2cc(Cl)ccc2Cl)c(=O)n(C)c1=O	-4.9%
Cc1ccc(S(=O)(=O)N2CCOCC2)cc1NC(=O)COC(=O)CSc1ccc(Br)cc1C	-11.2%
CCCCC(=O)Nc1ccc(C(=O)Nc2nnc(COC)s2)cc1	-19.4%
Cc1nc(-c2ccccc2)nc2[nH]c(=O)n(-c3ccccc3)c(=O)c12	-14.1%
O=C(NCn1ccc(=O)[nH]c1=S)c1ccccc1	-0.8%
O=C(COC(=O)Cn1nnc2ccccc21)Nc1ccccc1Br	-8.5%
Cc1cc(NC(=O)CCCN2C(=O)/C(=C/c3cccs3)SC2=S)no1	-1.3%
O=C(c1cc([N+](=O)[O-])ccc1Cl)N1c2ccccc2Sc2ccccc21	-8.7%
O=C1C(C=Nc2ccccc2O)=C(O)c2ccccc21	-13.7%
Nc1ccn([C@H]2C[C@H](O)[C@@H](CO)O2)c(=O)n1	2.3%
O=C(NC1CCCC1)C1CC(c2ccc(F)cc2)=NO1 (stereo not given)	-6.9%
CC1(C)CCC[C@@]2(C)C1CC[C@@](C)(O)[C@@H]2CC[C@@](C)(O)C1CO1 (stereo not given in full)	-5.4%
CC(C)CC1CC(=O)OC1(C)C(=O)CSc1nc2ccccc2s1 (stereo not given)	-17.1%
CC1CC(C)CN(CCCNC(=O)C2CCC(=O)N2C2CCCC2)C1 (stereo not given)	-8.4%
Cc1c(NC(=O)C(C)OC(=O)CNC(=O)c2ccc(C(C)(C)C)cc2)c(=O)n(-c2ccccc2)n1C (stereo not given)	1.9%
Oc1ccc(OCc2ccccc2)cc1	-2.9%
CCn1cc(C(=O)N2CCc3ccccc32)c(=O)c2cc(S(=O)(=O)N(C)C3CCCCC3)ccc21	-0.4%
COc1cccc(C2NC(=O)NC(C)=C2C(=O)OCCSC)c1OC (stereo not given)	-1.1%
CSCCC(NC(=O)c1ccco1)C(=O)OC(C)C(=O)NC(=O)NC1CCCCC1 (stereo not given)	-7.7%
CC(=O)N(C)c1ccc(NC(=O)c2ccco2)cc1	-12.9%
CS(=O)(=O)NCCC1=CCCCC1	-13.6%
CC1C(=O)CCN(C(C)(C)C)C1C (stereo not given)	-2.0%
CCOc1ccccc1OCCCC(=O)NC1=NCCS1	-4.1%
CC(=O)Nc1ccc(S(=O)(=O)NCC(=O)OCC(=O)N2CCN(c3ccccc3)CC2)cc1	-0.3%
CCOc1ccc(C2C=C(c3ccccc3)Nc3nnnn32)cc1 (stereo not given)	?
CCCC(c1nnnn1CCOC)N1CCN(Cc2ccccc2)CC1 (stereo not given)	0.0%
Cc1cc(-n2c(C)cc(C(=S)N3CCOCC3)c2C)ccc1Br	10µM*
O=C(NCC1COc2ccccc2O1)C1C2C=CC3(CN(Cc4ccccc4Cl)C(=O)C13)O2 (stereo not given)	-7.0%
NC1=N[C@H](c2ccc(Cl)cc2)N(c2ccc(S(N)(=O)=O)cc2)C(N)=N1	0.4%
C/C(CCN1CCCCc2nc(C)c(C)cc21)=N\O[C@H](C)c1cn([C@H](CO)Cc2ccccc2)nn1	-16.6%

Next compounds.
molecule	HPGD block
COc1ccc(N=C2S/C(=C\c3cc(C)n(C)c3C)C(=O)N2CC(C)C)cc1	-23.2%
Cc1sc2ncnc(NCC(C)(C)N3CCOCC3)c2c1C	-1.3%
CC(C)CCn1c(N2CCOCC2)nc2c1c(=O)n(CC(N)=O)c(=O)n2C	-0.7%
CC(=O)NC(c1cccs1)c1cc([N+](=O)[O-])c2cccnc2c1O (stereo not given)	-20.2%
O=C1c2ccccc2-c2c1nc1c([n+]2[O-])CCCC1	-13.5%
Cc1c(C#N)c(NC(=O)c2cccc(Cl)c2)n(Cc2ccccc2)c1C	-6.7%
Cc1cc(C)nc(Sc2nc(Cl)nc(N(c3ccccc3)c3ccccc3)n2)n1	-23.4%
Cc1cc(C)nc(NC(N)=NC2CCCCC2)n1	-2.7%
O=C1c2cnc3nc(SCc4ccccc4)nn3c2CC2c3ccccc3CCN12 (stereo not given)	?
Cn1c(Cn2cnc(Cl)c2Cl)nc2ccccc21	0.4%
Cc1nn(C)c(C)c1S(=O)(=O)N1CCC(C(=O)NC2CCCCC2)CC1	-3.9%
Cc1cc(C)n(-c2ccc(C(=O)Nc3ccccn3)cc2)n1	-17.0%
CCc1c(C)nc2c(Br)cccc2c1SCCC#N	-6.1%
OCCCSCCO	-1.6%
CCOC(=O)C1CCCN(C(=O)CN2C(=O)c3ccccc3C2=O)C1 (stereo not given)	-6.9%
O=C(Cn1nnc(-c2ccccc2)n1)N=Nc1c(O)[nH]c2ccccc12	1.1%
CCOC(=O)N1CCC(NC(=O)c2cccn3c(=O)c4cc(Br)ccc4nc23)CC1	-12.0%
O=C(Nc1sccc1C(=O)NCc1ccco1)c1cccnc1	-20.6%
O=c1oc2ccccc2c(Nc2ccc3ccccc3c2)c1[N+](=O)[O-]	-17.0%
Cc1cccc(C(=O)NC2CC(C)(C)NC(C)(C)C2)c1	-12.2%

4 records drawn at random from the list so far, as already listed:
molecule	HPGD block
Cc1cccc(C(=O)NC2CC(C)(C)NC(C)(C)C2)c1	-12.2%
CCOC(=O)N1CCC(NC(=O)c2cccn3c(=O)c4cc(Br)ccc4nc23)CC1	-12.0%
CCc1c(C)nc2c(Br)cccc2c1SCCC#N	-6.1%
O=c1oc2ccccc2c(Nc2ccc3ccccc3c2)c1[N+](=O)[O-]	-17.0%

The list continues.
molecule	HPGD block
Cc1nn(-c2ccccc2)c(C)c1/C=N/NC(=O)c1cc(-c2cccs2)[nH]n1	-14.1%
Cc1cc(NC(=O)c2ccc(S(=O)(=O)N3CCOCC3)cc2)nc2c1c(=O)oc1ccccc12	?
O=C(Cn1ncc2ccccc21)N1CCc2ccccc21	-4.2%
COc1cc2c(cc1NC(=O)C(C)Sc1ccc(C)cc1)oc1ccccc12 (stereo not given)	-16.0%
CCOC(=O)N1CCC(NC(=O)c2oc3c(c2C)-c2[nH]ncc2CC3)CC1	-26.5%
CN1CCCC[C@@H]1CCN1CCCCC1	0.0%
Cc1nn(Cc2ccc(C(=O)Nc3ccccc3C(F)(F)F)o2)c(C)c1Br	-9.3%
